StopGo reporter: lowers the luciferase signal of an FMDV 2A StopGo reporter; actives 1.2% (n = 410,000); AID 1159524; human cells with a luciferase reporter of 2A StopGo recoding; control for the full effect not named in the record; Potency, µM (highest dose often 57.9 µM), inactives show at the top dose signal change, negative = less light; active = well fitted falling curve with a large enough effect; inconclusive = small, poorly fitted or top-dose-only effect; inactive = no such curve, though single readings can be large or run the other way; tested in HEK293T cells; also: % is scaled to controls: 0 for no effect and ±100 for the full control effect; nearly all actives have a fitted effect of over 45% in size; luciferase light after 4 h
RE007 growth inh: less growth of the S. pombe RE007 Vpr strain; S. pombe RE007 Vpr strain, BacTiter-Glo ATP luminescence, 24 h; control for the full effect not named in the record; Potency, µM (highest dose often 92.2 µM), without a hit: top-dose activity change, negative = less growth; actives 0.21% (n = 360,000); AID 651644; active = well fitted falling curve with a large enough effect; inconclusive = small, poorly fitted or top-dose-only effect; inactive = no such curve, though single readings can be large or run the other way;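 also: % is scaled to controls: 0 for no effect and ±100 for the full control effect; nearly all actives have a fitted effect of over 50% in size; the assay follows cell death caused by Vpr and the record does not say whether a fall means rescue or toxicity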
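Fission yeast strain RE007, carrying one chromosomally integrated HIV-1 vpr copy, was seeded at OD 0.01 in PMG+AL medium with 23 nL pinned compound. After 24 h at 30 °C and 99% humidity, viability was read by BacTiter-Glo luminescence.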
Marburg entry inh: Marburg virus entry inhibition. actives 1.8% (n = 300,000). Marburg virus pseudotyped entry inhibition, cell reporter; control for the full effect not named in the record; about a third of the inactives were read at about 46 µM. Potency, µM (doses to about 37.8 µM), inactives show at the top dose activity change, negative = inhibition, usual class: inhibitors. AID 540276; active = well fitted inhibition curve with a large enough effect; inconclusive = small, poorly fitted or top-dose-only effect, or effect the other way; inactive = flat fitted curve, though single readings scatter; tested in HEK293 cells; about a fifth of its hits are not listed in these tables; also: % is scaled to controls: 0 for no effect and ±100 for the full control effect; luciferase read-out
Cruzain noTriton: blocks cruzain activity in detergent-free assay; purified cruzain, Z-FR-AMC fluorescence, no detergent; Potency, µM, for inactives: max response, negative = inhibition, usual class: inhibitors; P25779; actives 2.3% (n = 200,000); active = well fitted curve in the direction sought with a large enough effect; inconclusive = small, poorly fitted or top-dose-only effect, or another doubt; inactive = no such curve, though single readings can be large; an effect the other way counts as inactive or inconclusive;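 also: plate controls were enzyme without inhibitor for no effect and buffer without enzyme for full effect; nearly all actives have a fitted effect of over 40% in size; top concentration of the series not given in the record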
Target sequence (P25779 123-467 limits assumed): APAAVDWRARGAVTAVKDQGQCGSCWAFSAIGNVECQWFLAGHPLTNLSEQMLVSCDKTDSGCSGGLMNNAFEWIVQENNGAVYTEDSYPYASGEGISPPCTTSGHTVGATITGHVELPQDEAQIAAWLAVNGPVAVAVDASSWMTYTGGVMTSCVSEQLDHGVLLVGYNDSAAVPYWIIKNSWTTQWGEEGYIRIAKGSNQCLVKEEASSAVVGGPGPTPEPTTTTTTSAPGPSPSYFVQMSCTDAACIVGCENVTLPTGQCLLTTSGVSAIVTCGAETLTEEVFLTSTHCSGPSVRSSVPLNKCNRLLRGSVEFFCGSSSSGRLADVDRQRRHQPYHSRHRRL
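Detergent-free condition (0.00005% Triton X-100) in acetate buffer pH 5.5 with DTT. 1.5 nM enzyme and compound were pre-mixed 15 min, then 2 uM Z-FR-AMC substrate added; reaction progress from fluorescence change between first and third reads (60 s).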
Lassa entry inh: Lassa virus entry inhibition | Lassa virus pseudotype entry inhibition, cell reporter; control for the full effect not named in the record | Potency, µM (doses to about 37.9 µM), for inactives: top-dose activity change, negative = inhibition, hits mostly inhibitors | actives 1.2% (n = 300,000) | AID 540256; active means well fitted inhibition curve with a large enough effect; inconclusive means small, poorly fitted or top-dose-only effect, or effect the other way; inactive means flat fitted curve, though single readings scatter; tested in HEK293 cells; also: % is scaled to controls: 0 for no effect and ±100 for the full control effect; nearly all actives have a fitted effect of over 50% in size; luciferase read-out
Cruzain inh Det: blocks cruzain activity in presence of Triton detergent; P25779; purified cruzain, Z-FR-AMC fluorescence, 0.01% Triton; Potency, µM, without a hit: max response, negative = inhibition, hits mostly inhibitors; actives 0.43% (n = 200,000); active = well fitted curve in the direction sought with a large enough effect; inconclusive = small, poorly fitted or top-dose-only effect, or another doubt; inactive = no such curve, though single readings can be large; an effect the other way counts as inactive or inconclusive;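 also: plate controls were neutral wells for no effect and buffer without enzyme for full effect; nearly all actives have a fitted effect of over 40% in size; top concentration of the series not given in the record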
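Compounds were screened in titration against cruzain (1.5 nM) with 0.01% Triton X-100 to counter colloidal aggregation. Activity was the AMC fluorescence increase over 60 s after adding 2 uM Z-FR-AMC at pH 5.5.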
SARS PLP yeast: blocks SARS-CoV papain-like protease in a yeast assay | S. cerevisiae expressing SARS-CoV PLpro, growth rescue; control for the full effect not named in the record | Potency, µM (top dose mostly 32.9 µM), for the others: at the highest dose activity, positive = growth rescue | actives 0.19% (n = 330,000) | AID 485353; also: 0% is about no effect; nearly all actives have a fitted effect of over 55% in size; growth read by luminescence after 48 h
NS1 inh: inhibitors of influenza NS1 protein function. S. cerevisiae slowed by influenza A NS1, growth recovery by OD600. Potency, µM (series often up to 46.1 µM), without a hit: top-dose activity, positive = more growth. actives 0.4% (n = 270,000). AID 2326; also: actives are rising curves; nearly all actives have a fitted effect of over 50% in size
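Compounds were scored for reversing the slow growth caused by influenza A NS1 in S. cerevisiae, measured by optical density at 600 nm. Assay medium contained 2% galactose at pH 6.0; NS1-free yeast of the same strain were the positive control.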
An asterisk follows results filed as active; ? = inconclusive; . = not tested or not shown; & = joins results of further samples; [ ] = remark or other dose. Unless noted, calls follow the shape of the dose curve; as a rule, active means well fitted rising curve with a large enough effect; inconclusive means small, poorly fitted or top-dose-only effect; inactive means no such curve, though single readings can be large or run the other way. Potency is read from the fitted curve at half-maximal effect.

# | Compound | Cruzain noTriton | SARS PLP yeast | StopGo reporter | RE007 growth inh | Cruzain inh Det | Marburg entry inh | NS1 inh | Lassa entry inh
1 | Cc1ccc(-c2cc(C(=O)Nc3ccccn3)c3ccccc3n2)o1 | . | -2% | -19% | 8% | . | ? | . | -7%
2 | CCOC(=O)c1[nH]c(C)c(CN(CCc2ccccc2)C(=O)CCC(=O)O)c1C | ? | 0% | -15% | 0% | -0.1% | 8% | 16% | -10%
3 | O=C(O)c1cc(-c2ccc(/C=N/NC(=S)Nc3ccccc3)o2)ccc1Cl | . | 1% | 16% | 6% | . | ? | 14% | 21%[46.1 µM]
4 | COc1cc(OC)c(OC)cc1/C=C(\C#N)C(=O)NCc1cccs1 | . | 2% | -5% | 8% | . | -27%[46.1 µM] | 3% | ?
5 | O=C(NCc1ccc2c(c1)OCO2)c1cc2ncc(Br)cn2n1 | -26% | 1% | -14% | 16% | 1.5% | 1% | 20% | 0%
6 | COCCn1c(SCC(=O)Nc2cccc(C)n2)nnc1-c1ccco1 | . | 0% | 2% | -5% | . | -8%[46.1 µM] | 1% | -18%[46.1 µM]
7 | COc1ccc(CCNC(=O)CSc2nc3sc(C(=O)O)c(C)c3c(=O)[nH]2)cc1OC | . | 7% | 0% | -4% | . | -13% | 9% | 22%
8 | CC(C)c1ccc(/C=C(\C#N)c2nc(-c3cc4ccccc4oc3=O)cs2)cc1 | -2% | . | -17% | . | -7.1% | . | . | 18%[46.1 µM]
9 | CCOc1ccc(C(=O)NC(=S)Nc2ccccc2OC)cc1[N+](=O)[O-] | 8% | 12% | -21% | -2% | -2.0% | -18% | 22% | -1%
10 | CCN(CC)C(=O)C1CCCN(Cc2ccccc2C(F)(F)F)C1 (stereo not given) | -29% | 6% | -3% | 14% | 6.0% | -9% | 4% | -12%
11 | CC(=O)Nc1ccc(Nc2nc(-c3ccccc3)nc3ccccc23)cc1 | . | -14% | ? | -9% | . | ? | . | ?
12 | COc1ccc(Nc2nc(N3CCCC3)nc3ccccc23)c(OC)c1 | 3% | -4% | . | 9% | 0.6% | ? | -37% | 16µM*

Looked up above:
Value of entry 11 in RE007 growth inh: -9%
Value of entry 2 in StopGo reporter: -15%

Following part
# | Compound | Cruzain noTriton | SARS PLP yeast | StopGo reporter | RE007 growth inh | Cruzain inh Det | Marburg entry inh | NS1 inh | Lassa entry inh
13 | COc1ccc(NC(=O)CCCN2C(=O)/C(=C\c3ccco3)SC2=S)cc1 | 7% | -18% | ? | 3% | -9.3% | -5% | 23% | ?
14 | CCCCN(CCCNC(=O)c1ccc(CS(=O)(=O)c2ccc(OC)cc2)o1)Cc1ccccc1 | . | 0% | -9% | 12% | . | . | 7% | .
15 | Cc1cccc(C(=O)Nc2ccc(O)cc2)c1 | -4% | ? | 20% | -2% | -0.2% | -21% | -6% | -24%
16 | Cc1ccc(-n2ncc3c(NCc4cccnc4)ncnc32)cc1C | . | 1% | 1% | 5% | . | ? | -21% | -23%[46.1 µM]
17 | Cc1nc2cc(-c3cccc(Cl)c3)nn2c(N2CCN(C(=O)c3ccco3)CC2)c1C | ? | -3% | . | . | -7.1% | 0% | -36% | .
18 | CC(=O)c1ccc(NC(=O)CSc2cn(CC(=O)N3CCCCC3)c3ccccc23)cc1 | -7% | . | -3% | . | -6.7% | . | . | 3%[46.1 µM]
19 | O=C(N/N=C/c1cccnc1)c1ccc(Cl)c(Cl)c1 | . | . | 20% | -13% | . | ? | . | 5%
20 | CCN(CC)S(=O)(=O)c1ccc(C(=O)NCC(c2cccs2)N2CCOCC2)cc1 (stereo not given) | 7% | 0% | . | 10% | 3.9% | 9% | -13% | -28%
21 | COc1ccc(CCC(C)NCCc2ccccc2)cc1 (stereo not given) | -6% | 1% | . | -14% | 1.3% | ? | -3% | -29%
22 | COC(=O)c1cccc(C23CC4(C2)[C@H](CN(Cc2ccc(C(F)(F)F)cc2)[C@@H]4c2ccccc2)C3c2ccc(C(F)(F)F)cc2)c1 (stereo not given in full) | -27% | -6% | 0% | -8% | 4.0% | . | 12% | .
23 | Cc1nn(CCC(=O)NNC(=S)Nc2ccc(F)cc2)c(C)c1[N+](=O)[O-] | 5% | -23% | -18% | 32% | -1.1% | -2% | -9% | -10%
24 | Cc1ccc(-c2cc(C(=O)N/N=C\c3cnn(C)c3C)c3ccccc3n2)cc1C | ? | -2% | 18% | 0% | -18% | -24% | 13% | 11µM*
25 | CCN(CC)CCn1c2c(c(SCC(=O)Nc3nc(C)cs3)nc1=O)CCCC2 | . | -2% | -13% | 5% | . | ? | . | 3%
26 | O=C(NCC1CCCCC1)c1cc2ccccc2cc1O | . | -24% | 3% | -7% | . | ? | -34% | ?
27 | O=S(=O)(c1cccc2cccnc12)N1CCN(c2ccc(F)cc2)CC1 | . | -1% | 5% | -22% | . | 18% | -11% | 14%
28 | CC(C)c1ccc(NC(=O)CCNS(=O)(=O)c2ccc3c(c2)CCCC(=O)N3)cc1 | -15% | . | 0% | . | -2.3% | . | . | -6%[46.1 µM]
29 | CCCCn1c(=O)c(CC(C)=O)nc2ccccc21 | 1% | 12% | 3% | -1% | -5.0% | 28% | -1% | 3%
30 | COC(=O)C(=Cc1ccccc1[N+](=O)[O-])C(=O)OC | . | -4% | 16µM* | -2% | . | . | -38% | .
31 | COCCNC(=O)c1sc2ncccc2c1-n1c(C)ccc1C | -5% | . | -16% | . | -2.3% | . | . | -12%[46.1 µM]
32 | COc1ccc(CNC(=O)C2CCN(C(=O)[C@@H](CC(C)C)NC(=O)OC(C)(C)C)CC2)cc1 | ? | -3% | . | . | -6.3% | 0% | -5% | .
33 | CCSc1nnc(NC(=O)C2CCCCC2)s1 | 10% | -2% | 44%[activator] | 2% | 0.2% | ? | -9% | ?
34 | O=C1NC2(CCCCCC2)C(=O)N1Cc1ccc(Cl)cc1Cl | . | -2% | ? | -22% | . | ? | -1% | .
35 | CN(C)c1ccc(C=Nc2ccc(N(C)C)cc2)cc1 | 2% | -27% | 27% | -22% | -7.6% | ? | -9% | ?
36 | COc1ccc(CCC(=O)N2CCC3(CC2)OCCO3)cc1 | 2% | 1% | 49%[activator] | 6% | 4.6% | -2% | ? | -3%
37 | O=C(N/N=C/c1ccc([N+](=O)[O-])cc1)c1cccnc1 | . | 6% | 14% | -4% | . | . | 4% | .
38 | COc1ccc(NC(=O)Cn2c(=O)sc3ccccc32)c(OC)c1 | -16% | -4% | -18% | 28% | -3.2% | 1% | -69% | .
39 | COc1ccccc1NS(=O)(=O)c1cc(NC(=O)c2cccs2)ccc1N1CCCC1 | ? | -6% | 51%[activator] | -19% | -9.1% | ? | 29% | 12µM*
40 | O=C(NN=Cc1ccccc1O)C1CC1 | . | . | 8% | -7% | . | -14%[46.1 µM] | . | 26%[46.1 µM]
41 | CCCCN(C(=O)c1cccc(S(=O)(=O)N2CC(C)OC(C)C2)c1)c1c(N)n(CC(C)C)c(=O)[nH]c1=O (stereo not given) | . | -1% | -4% | 0% | . | 0% | -7% | -1%
42 | CC(=O)Cc1ccccc1OC(=O)c1ccco1 | 1% | 7% | -13% | -14% | 4.9% | -8%[46.1 µM] | -4% | 0%
43 | CC(=O)c1ccc(NC(=S)N2CCN(CCO)CC2)cc1 | . | -8% | 13% | -1% | . | -7% | -17% | 12%
44 | Cc1c(C(=O)N2CCOCC2)c(S(=O)(=O)N2CCN(c3ccc(Cl)cc3)CC2)c(C)n1C | . | 6% | 6% | -2% | . | 8%[46.1 µM] | 4% | 8%[46.1 µM]
45 | COc1ccc(CNC(=O)CCc2c(C)c3ccc(OC)c(C)c3oc2=O)cc1OC | 2% | . | -2% | . | -3.4% | -18%[46.1 µM] | . | 7%[46.1 µM]
46 | C=CCOc1c(OC)cc(/C=N/Nc2cccc(C(=O)O)c2)c(Br)c1Br | 11% | -29% | 11% | . | -23% | ? | -15% | 0%
47 | Cc1cc(Nc2cc(Cl)cc(Cl)c2)nc(N)n1 | . | -2% | -7% | 4% | . | . | -1% | .
48 | CN(CC(=O)Nc1ccc(F)cc1)C(=O)CN1C(=O)NC2(CCCc3ccccc32)C1=O (stereo not given) | . | 1% | -4% | -18% | . | ? | -5% | -6%

Limited to SARS PLP yeast, StopGo reporter and Cruzain noTriton, for some of the entries so far:
#	mol	SARS PLP yeast	StopGo reporter	Cruzain noTriton
47	Cc1cc(Nc2cc(Cl)cc(Cl)c2)nc(N)n1	-2%	-7%	.
48	CN(CC(=O)Nc1ccc(F)cc1)C(=O)CN1C(=O)NC2(CCCc3ccccc32)C1=O (stereo not given)	1%	-4%	.

The list goes on:
# | Compound | Cruzain noTriton | SARS PLP yeast | StopGo reporter | RE007 growth inh | Cruzain inh Det | Marburg entry inh | NS1 inh | Lassa entry inh
49 | COc1cccc(CN2CCN(C(=O)c3oc4c(F)cccc4c3C)CC2=O)c1 | . | -1% | -29% | 2% | . | . | -29% | .
50 | COc1ccccc1/C=C/C=N/n1c(-c2cc(C)[nH]n2)n[nH]c1=S | 4% | 7% | -2% | . | -8.7% | ? | 13% | ?
51 | CSc1ncccc1C(=O)OCc1ccc(COC(=O)c2cccnc2SC)cc1 | 0% | 3% | . | . | -5.5% | -2% | 6% | .
52 | CNc1ccc(Br)cc(C(=O)/C=C/c2ccc3c(c2)OCO3)c1=O | -22% | -11% | ? | -22% | -9.2% | -32% | 4% | ?
53 | O=C(NCc1cccs1)c1cc(-c2ccccc2)on1 | -27% | -1% | . | 4% | 1.6% | 2%&2% | 3% | -2%
54 | Cc1cccc(N(C)C(=O)c2cc(S(=O)(=O)N3CCc4ccccc43)cn2C)c1 | . | -8% | 0% | -4% | . | . | 5% | .

Among those listed so far, these contain a cyano group.
# | Compound | Cruzain noTriton | SARS PLP yeast | StopGo reporter | RE007 growth inh | Cruzain inh Det | Marburg entry inh | NS1 inh | Lassa entry inh
4 | COc1cc(OC)c(OC)cc1/C=C(\C#N)C(=O)NCc1cccs1 | . | 2% | -5% | 8% | . | -27%[46.1 µM] | 3% | ?
8 | CC(C)c1ccc(/C=C(\C#N)c2nc(-c3cc4ccccc4oc3=O)cs2)cc1 | -2% | . | -17% | . | -7.1% | . | . | 18%[46.1 µM]

Screening results from PubChem.
